Bioassay records from PubChem.
DUX4 inh: blocks DUX4-driven transcriptional activation. activity change, negative = inhibition, % (no concentration beside the values). AID 1224904. 37,000 tested, 0.8% active. 293T-iDUX4 ZSCAN4-Gaussia luciferase reporter, 24 h; active compounds read low;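 active means -10% or lower and over 25 points stronger than a control reporter; inconclusive means -10% or lower with a smaller gap; inactive means above -10%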;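 further: 0% = median of neutral control wells and -100% = median of positive control wells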
DUX4 inh difference: also measured in DUX4 inh; calls as there; Gaussia minus Italica difference, %; measured here: selective DUX4 reporter inhibition;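 worked out from the two reporters; negative = selective loss of the DUX4 reporter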
DUX4 inh control: further read-out of DUX4 inh, marked with its call; activity change, negative = inhibition, %; measured here: Italica tet-on control reporter;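 0 = neutral control and -100 = positive control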
* marks the source's active call; other numbers are inactive results; ? = inconclusive; . = no result given.

SMILES | DUX4 inh | DUX4 inh difference | DUX4 inh control
CC(=O)N(C)C[C@H]1[C@H](c2ccc(-c3ccccc3F)cc2)[C@@H](CO)N1C(C)=O | 0 | -3 | 2.9
O=S(=O)(c1ccccc1)N1CC2(C1)[C@H](c1ccccc1)[C@@H](CO)N2CC1CC1 | -4 | -9 | 4.6
COCCNC(=O)C[C@H]1C[C@@H]2c3cc(NC(=O)C4CCC4)ccc3O[C@@H]2[C@H](CO)O1 | 1 | -3 | 3.6
CC(C)NC(=O)N1[C@@H](CO)[C@@H](c2ccccc2)C12CN(C(=O)Cc1ccccc1)C2 | -8 | -3 | -4.7
O=C(C[C@H]1CC[C@H]2[C@@H](COC[C@@H](O)CN2C(=O)c2ccc(F)cc2)O1)Nc1ccc(-c2ccccc2)cc1 | -9 | 4 | -12
C[C@@H]1CN([C@H](C)CO)C(=O)CCCn2cc(nn2)CO[C@H]1CN(C)Cc1ccccc1C(=O)O | -3 | -3 | -0.2
CCCNC(=O)Nc1ccc2c(c1)C(=O)N(C)C[C@H](OC)[C@H](C)CN(Cc1ccccn1)[C@H](C)CO2 | 10 | 4 | 5.6
CCCNC(=O)N1[C@H](CO)[C@@H](c2ccccc2-c2ccc(C)cc2)[C@@H]1C#N | -2 | 4 | -6.2
COc1ccc(NC(=O)Nc2ccc3c(c2)[C@H]2C[C@@H](CC(=O)NCCc4ccccc4)O[C@@H](CO)[C@H]2O3)cc1 | -1 | -1 | 0.1
COc1ccc(S(=O)(=O)Nc2cccc3c2O[C@H](CN(C)Cc2ccc(C(F)(F)F)cc2)[C@@H](C)CN([C@H](C)CO)C3=O)cc1 | 1 | 2 | -1.5
C[C@@H]1CN([C@@H](C)CO)C(=O)c2cccc(NS(=O)(=O)c3ccc(F)cc3)c2O[C@@H]1CN(C)C(=O)NC1CCCCC1 | -1 | -1 | -0.1
O=C(C[C@H]1C[C@@H]2c3cc(NC(=O)CC4CC4)ccc3O[C@@H]2[C@H](CO)O1)NCc1ccncc1 | -1 | 2 | -2.9
CCCN1[C@H](C(=O)N2CCCCC2)[C@@H](CO)[C@@H]2Cn3c(cccc3=O)[C@@H]21 | 6 | 5 | 1.5
CCCN(C)C[C@@H]1Oc2cc(Br)ccc2S(=O)(=O)N([C@@H](C)CO)C[C@@H]1C | 0 | 2 | -2.0
C[C@H](CO)N1C[C@H](C)[C@@H](CN(C)Cc2ccc(Cl)c(Cl)c2)OCc2ccccc2-c2c(n(C)c3ccccc23)C1=O | ? | . | .
CO[C@H]1CC[C@H]2CCN(C)C(=O)[C@@H](C)CN(C)C(=O)c3cc(C#N)ccc3OC[C@H]1O2 | -2 | -2 | 0.1
CCN1[C@@H]2Cn3c(ccc(-c4cccnc4)c3=O)[C@H]1[C@@H](C(=O)NCc1ccccc1)[C@@H]2CO | 0 | -3 | 2.7
CC(C)(C)[S@@](=O)N1Cc2cc(C(=O)NCc3ccncc3)nc(-c3cccc(-c4ccc(C#N)cc4)c3)c2[C@H]1CCO | 1 | 4 | -2.9
C/C=C/c1ccc2c(c1)O[C@@H](CN(C)S(=O)(=O)c1ccc(F)cc1)[C@@H](C)CN([C@@H](C)CO)S2(=O)=O | -5 | -5 | 0.3
COc1ccccc1-c1ccccc1[C@@H]1[C@@H](CO)N(C(=O)C2CCC2)[C@H]1C#N | ? | . | .
CCCNC(=O)N1[C@H](C#N)[C@@H](c2ccccc2-c2cccc(C)c2)[C@@H]1CO | -4 | -2 | -2.7
Cc1ccc(-c2ccccc2[C@H]2[C@@H](C#N)N(c3ncc(-c4ccccc4)s3)[C@@H]2CO)cc1 | ? | . | .
C[C@@H]1CN([C@H](C)CO)C(=O)c2cccc(NS(=O)(=O)c3ccccc3)c2O[C@@H]1CN(C)Cc1ccc(C(=O)O)cc1 | 1 | 2 | -0.4
CC=Cc1ccc2n(c1=O)C[C@H]1[C@H](CO)[C@@H](C(=O)NCC(F)(F)F)N(C(=O)c3cccnc3)[C@@H]21 (mixture of isomers) | -8 | -20 | 12
CN(C)C(=O)c1ccc(-c2ccc(C3[C@@H]4CN(C(=O)c5ccccn5)C[C@H]3N4)cc2)cc1 (stereo not given in full) | 17 | 6 | 12
CCC(=O)N1CC2(C1)[C@@H](c1ccc(-c3ccccc3OC)cc1)[C@@H](CO)N2C(C)=O | 6 | 5 | 0.3
CCCNC(=O)N1C[C@@H]2[C@H](c3ccccc31)[C@@H](CO)N2Cc1ccc2c(c1)OCO2 | 0 | -5 | 4.5
CO[C@H](CN(C)C(=O)c1ccccc1F)[C@@H](C)CN([C@H](C)CO)S(=O)(=O)c1ccc(C)cc1 | 3 | 3 | -0.4
O=S(=O)(Cc1ccccc1)N1CCCCN2[C@H](C1)[C@@H](c1ccc(-c3ccc(F)cc3)cc1)[C@@H]2CO | ? | . | .
Cc1ccc(-c2ccccc2[C@H]2[C@@H](CO)N(S(C)(=O)=O)[C@H]2C#N)cc1 | 19 | 12 | 7.4
CN1c2ccc(C3=CCCCC3)cc2[C@@H]2[C@@H](CCN2C(=O)C2CCCCC2)[C@H]1CO | ? | . | .
CCCNC(=O)N1[C@@H](C#N)[C@@H](c2ccc(C3=CCCCC3)cc2)[C@@H]1CO | 3 | 3 | 0.4
COCC(=O)N1[C@H](CO)[C@H](c2ccccc2-c2ccccc2F)[C@@H]1C#N | 10 | 4 | 6.3
CCCNC(=O)N1C[C@H](O)COC[C@@H]2O[C@@H](CC(=O)N3CCN(C)CC3)CC[C@H]21 | 7 | 5 | 1.8
CO[C@H]1CN(C)C(=O)c2cc(NC(=O)Nc3cccc(Cl)c3)ccc2OC[C@H](C)N(C(=O)Nc2c(C)noc2C)C[C@H]1C | -2 | -3 | 0.9
C[C@H]1CN([C@@H](C)CO)C(=O)Cc2cc(NC(=O)CCCCCC(=O)Nc3ccccc3N)ccc2O[C@@H]1CN(C)Cc1ccc(C(F)(F)F)cc1 | -1 | -4 | 3.6
O=C(c1cccc(F)c1)N1CCCCN2[C@H](CO)[C@H](c3ccc(-c4cncnc4)cc3)[C@@H]2C1 | 14 | -1 | 15
COc1ccccc1CNC(=O)C[C@H]1C=C[C@H](NC(=O)CC2CC2)[C@H](CO)O1 | 3 | 5 | -1.8
C[C@H](CO)N1C[C@H](C)[C@H](CN(C)Cc2ccc(-c3ccccc3)cc2)Oc2cc(C#C[C@@H](C)O)ccc2S1(=O)=O | 0 | 2 | -1.8
C[C@H](NC(=O)C[C@H]1CC[C@H]2[C@@H](COC[C@H](O)CN2C(=O)Nc2cccc(F)c2)O1)c1ccccc1 | 15 | 9 | 6.5
O=C(C[C@@H]1C[C@H]2c3cc(NC(=O)Nc4ccccc4)ccc3O[C@H]2[C@@H](CO)O1)NC1CCCC1 | 2 | -3 | 4.6
O=C(CC1CC1)N1CC(=O)N2[C@H](CO)[C@H](c3ccc(C#Cc4cccc(F)c4)cc3)[C@H]2C1 | ? | . | .
CO[C@H]1CC[C@@H]2CCN(C)C(=O)[C@H](C)N(C)C(=O)c3cccc(C#N)c3OC[C@H]1O2 | 0 | 2 | -2.8
COc1ccc(NC(=O)N(C)C[C@H]2Oc3ncc(C#C[C@H](C)O)cc3C(=O)N([C@@H](C)CO)C[C@H]2C)cc1 | 0 | -4 | 3.6
O=C(c1cccnc1)N1CC[C@@H]2[C@@H](CO)Nc3ccc(-c4ccccc4)cc3[C@@H]21 | 16 | 20 | -4.0
O=C(C[C@@H]1CC[C@@H]2[C@H](COC[C@H](O)CN2C(=O)Nc2ccc(Cl)cc2)O1)NCC1CCCCC1 | -2 | -10 | 8.1
C[C@H](NC(=O)C[C@@H]1CC[C@H]2[C@@H](COc3ccc(NS(=O)(=O)c4ccc(Cl)cc4)cc3C(=O)N2C)O1)c1ccccc1 | -1 | -5 | 3.2
O=C(C[C@@H]1CC[C@H]2[C@@H](COC[C@@H](O)CN2Cc2ccc3c(c2)OCO3)O1)Nc1ccc(-c2ccccc2)cc1 | ? | . | .
CCS(=O)(=O)N1CCC2(CC1)CN(C)[C@H](CO)c1c2c2ccc(OC)cc2n1C | 7 | -6 | 12
CCCC#Cc1ccc([C@@H]2[C@@H](C#N)N(C(=O)C3CC3)[C@H]2CO)cc1 | 10 | 6 | 4.2
COC(=O)c1ccc(CN2CC(=O)N3[C@H](C2)[C@@H](c2ccc(Br)cc2)[C@@H]3CO)cc1 | -3 | -2 | -1.2
COc1ccccc1C(=O)N1C[C@@H]2[C@H](c3ccccc31)[C@H](CO)N2C(=O)Cc1cccnc1 | -2 | 1 | -2.9
CO[C@@H]1CN(C)C(=O)c2ccc(NS(C)(=O)=O)cc2OC[C@@H](C)N(CC2CC2)C[C@@H]1C | -1 | -3 | 1.7
Cc1ccccc1S(=O)(=O)N1C[C@H](O)COC[C@H]2O[C@@H](CC(=O)NCCc3ccccc3)CC[C@@H]21 | ? | . | .
COc1cccc(CN2CCCCN3[C@H](C2)[C@@H](c2ccc(C#Cc4cccnc4)cc2)[C@@H]3CO)c1 | -17* | -31* | 14*
CN(C)CCCNC(=O)C[C@@H]1CC[C@@H]2[C@@H](COc3ccc(NC(=O)c4ccc5c(c4)OCO5)cc3C(=O)N2C)O1 | 2 | -1 | 3.2
CCNC(=O)[C@@H]1[C@@H](CO)[C@@H]2Cn3c(ccc(-c4ccccc4)c3=O)[C@@H]2N1Cc1ccc2c(c1)OCO2 | -3 | 1 | -3.9
CCCNC(=O)Nc1ccc2c(c1)OC[C@@H](C)N(S(C)(=O)=O)C[C@@H](C)[C@H](OC)CN(C)C2=O | 2 | 1 | 1.0
CCNC(=O)C[C@H]1CC[C@@H]2[C@H](COc3ccc(NC(=O)Nc4ccccc4Cl)cc3C(=O)N2C)O1 | 0 | -1 | 1.0
Cc1noc(C)c1NC(=O)N(C)C[C@H]1Oc2ccc(N(C)C)cc2CC(=O)N([C@H](C)CO)C[C@@H]1C | 4 | 3 | 0.8

Record cards (already shown). Order of screens: DUX4 inh, DUX4 inh difference, DUX4 inh control
`CCN1[C@@H]2Cn3c(ccc(-c4cccnc4)c3=O)[C@H]1[C@@H](C(=O)NCc1ccccc1)[C@@H]2CO` is listed as 0, -3, 2.7
`CO[C@H]1CN(C)C(=O)c2cc(NC(=O)Nc3cccc(Cl)c3)ccc2OC[C@H](C)N(C(=O)Nc2c(C)noc2C)C[C@H]1C` is listed as -2, -3, 0.9
`CO[C@H](CN(C)C(=O)c1ccccc1F)[C@@H](C)CN([C@H](C)CO)S(=O)(=O)c1ccc(C)cc1` is listed as 3, 3, -0.4
`Cc1ccc(-c2ccccc2[C@H]2[C@@H](CO)N(S(C)(=O)=O)[C@H]2C#N)cc1` is listed as 19, 12, 7.4
`CO[C@@H]1CN(C)C(=O)c2ccc(NS(C)(=O)=O)cc2OC[C@@H](C)N(CC2CC2)C[C@@H]1C` is listed as -1, -3, 1.7

No new results follow: entries from further up.
SMILES | DUX4 inh | DUX4 inh difference | DUX4 inh control
CCCNC(=O)Nc1ccc2c(c1)OC[C@@H](C)N(S(C)(=O)=O)C[C@@H](C)[C@H](OC)CN(C)C2=O | 2 | 1 | 1.0
CCNC(=O)C[C@H]1CC[C@@H]2[C@H](COc3ccc(NC(=O)Nc4ccccc4Cl)cc3C(=O)N2C)O1 | 0 | -1 | 1.0
Cc1noc(C)c1NC(=O)N(C)C[C@H]1Oc2ccc(N(C)C)cc2CC(=O)N([C@H](C)CO)C[C@@H]1C | 4 | 3 | 0.8

Next results
SMILES | DUX4 inh | DUX4 inh difference | DUX4 inh control
COc1ccc2c3c([nH]c2c1)[C@@H](CO)N(C(=O)c1ccccc1)CC31CN(C)C1 | 12 | 9 | 3.3
O=C(c1ccccc1)N1CC(=O)N2[C@H](CO)[C@@H](c3ccc(C#CC4CC4)cc3)[C@@H]2C1 | -6 | -9 | 2.6
COc1ccccc1-c1ccc([C@@H]2[C@@H](C#N)N(C(=O)C3CCOCC3)[C@H]2CO)cc1 | 4 | 0 | 3.8
Cc1ccccc1S(=O)(=O)N1[C@H](C#N)[C@H](c2ccc(-c3ccccc3)cc2)[C@H]1CO | 0 | -2 | 1.7
Cc1noc(C)c1S(=O)(=O)N(C)C[C@H]1Oc2ccc(NS(=O)(=O)c3cn(C)cn3)cc2CC(=O)N([C@H](C)CO)C[C@H]1C | 0 | -2 | 1.4
C[C@H](CO)N1C[C@H](C)[C@@H](CN(C)C(=O)NC2CCCCC2)OCCCC[C@H](C)Oc2ccc(NC(=O)Nc3cccc4ccccc34)cc2C1=O | 11 | 10 | 0.4
COc1cc(CN2CC3(CN(S(=O)(=O)c4cn(C)cn4)C3)c3c(n(C)c4cc(OC)ccc34)[C@@H]2CO)cc(OC)c1 | 1 | -3 | 3.8
CCN1[C@@H]2c3ccc(C4=CCCCC4)c(=O)n3C[C@H]1[C@H](CO)[C@H]2C(=O)N1CCOCC1 | 7 | 6 | 1.8
COCC(=O)N1CC2(CCN(C(=O)c3cccnc3)CC2)c2c([nH]c3cc(OC)ccc23)[C@@H]1CO | 13 | 6 | 7.0
CC(C)NC(=O)N[C@H]1C=C[C@H](CC(=O)O)O[C@@H]1CO | 3 | 0 | 2.8
COc1ccc(NC(=O)Nc2ccc3c(c2)C(=O)N([C@@H](C)CO)C[C@@H](C)[C@@H](CN(C)S(=O)(=O)c2cccs2)OCCCC[C@@H](C)O3)cc1 | -4 | 7 | -11

An excerpt from above in order of formula weight, ascending.
SMILES | DUX4 inh | DUX4 inh difference | DUX4 inh control
COc1ccc2c3c([nH]c2c1)[C@@H](CO)N(C(=O)c1ccccc1)CC31CN(C)C1 | 12 | 9 | 3.3
Cc1ccccc1S(=O)(=O)N1[C@H](C#N)[C@H](c2ccc(-c3ccccc3)cc2)[C@H]1CO | 0 | -2 | 1.7
COc1cc(CN2CC3(CN(S(=O)(=O)c4cn(C)cn4)C3)c3c(n(C)c4cc(OC)ccc34)[C@@H]2CO)cc(OC)c1 | 1 | -3 | 3.8

This is a subset. The share of hits here may be higher or lower than overall.
